TRPML1 ag – human mucolipin-1 channel agonism. AID 624414. 0.12% of 410,000 active. TRPML1-expressing cells, Ca2+ dye fluorescence, FDSS; host cell line not named in the record; reference of the full effect not given here. activation, % (concentration not given with the values). Q9GZU1; in the data active = activation above about 50%; inconclusive = about 30% to 50%; inactive = below about 30%; note: 0% is about no effect; the text of the record puts the active cut at 80%
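Tetracycline-induced TRPML1-DL cells are seeded and incubated overnight before loading with a no-wash Ca2+ dye and quencher. Agonist activity is taken from the 110 s fluorescence read following compound pin-transfer on an FDSS, before EC80 54-4 challenge.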
Six1-Eya2 inh – blocks human Six1 binding to Eya2. AID 651725. activity change, % (concentration not given with the values). AlphaScreen GST-Six1/His-Eya2 binding, biochemical; hits give low values; control for the full effect not named in the record. 0.56% of 360,000 active; in the data active = activity change below about -65%; inconclusive = about -30% to -65%; inactive = above about -30%; note: % is set by controls: 0 for no effect and ±100 for the full control effect
Target sequence (O00167 whole entry, looked up): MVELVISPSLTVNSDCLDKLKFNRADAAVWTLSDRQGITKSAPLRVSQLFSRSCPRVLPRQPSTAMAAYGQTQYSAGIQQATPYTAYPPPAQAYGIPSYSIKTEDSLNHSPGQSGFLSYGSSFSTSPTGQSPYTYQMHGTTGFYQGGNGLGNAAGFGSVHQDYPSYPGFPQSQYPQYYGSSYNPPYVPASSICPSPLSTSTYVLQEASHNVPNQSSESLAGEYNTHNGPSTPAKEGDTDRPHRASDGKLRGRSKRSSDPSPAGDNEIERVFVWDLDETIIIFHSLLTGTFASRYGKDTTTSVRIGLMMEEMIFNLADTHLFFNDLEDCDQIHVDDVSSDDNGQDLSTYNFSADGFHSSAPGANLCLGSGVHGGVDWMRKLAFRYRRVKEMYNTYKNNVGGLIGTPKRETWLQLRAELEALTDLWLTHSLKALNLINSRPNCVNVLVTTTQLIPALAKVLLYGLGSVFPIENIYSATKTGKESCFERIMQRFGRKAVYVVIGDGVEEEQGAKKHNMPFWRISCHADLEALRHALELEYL
Target sequence (Q15475 whole entry, looked up): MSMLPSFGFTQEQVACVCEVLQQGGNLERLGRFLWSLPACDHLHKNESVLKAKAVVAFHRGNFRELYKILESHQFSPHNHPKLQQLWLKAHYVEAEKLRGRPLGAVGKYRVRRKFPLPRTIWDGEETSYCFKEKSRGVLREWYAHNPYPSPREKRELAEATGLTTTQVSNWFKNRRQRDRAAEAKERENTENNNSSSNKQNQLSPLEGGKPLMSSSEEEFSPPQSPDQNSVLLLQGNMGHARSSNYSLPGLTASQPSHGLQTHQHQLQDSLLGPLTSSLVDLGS
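AlphaScreen with GST-Six1 and His-Eya2 (5X mix: 250 nM and 500 nM), glutathione donor and nickel acceptor beads; buffer 50 mM Tris pH 8.0, 300 mM NaCl, 1 mM TCEP; 1 h at 37 C in the dark.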
PINK1 expr mod – changes PINK1 expression; PINK1 immunofluorescence, high-content cytometry, 24 h; 0.2% of 410,000 active; Potency, µM (doses to about 76.6 µM), for the others: top-dose activation (PINK1 increase), hits mostly activators; active = well fitted activation curve with a large enough effect; inconclusive = small, poorly fitted or top-dose-only effect; inactive = flat fitted curve, though single readings scatter; cell line not stated here;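 note: potency is the fitted concentration of half-maximal effect; % of control where 0% means no effect; nearly all actives have a fitted effect of over 65% in size; a mitochondrial uncoupler was the plate control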
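PINK1 protein level read as immunofluorescence by microplate cytometer in a fixed, stained stable cell line after 24 h exposure to five compound concentrations, with CCCP as control.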
D2 ag – agonists of human D2 dopamine receptor (beta-arrestin). 0.084% of 360,000 active. P14416. AID 624465. DiscoveRx PathHunter D2 beta-arrestin, luminescence, 90 min; 100% = 57 uM dopamine signal. activation, % (no concentration beside the values); in the data active = activation above about 40%; inconclusive = about 15% to 40%; inactive = below about 15%; note: compound concentration not given in the record; the text of the record calls up to 30% inactive
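Agonist mode: compounds alone added to overnight-plated D2 PathHunter cells for 90 min at 37 C, with 57 uM final dopamine (EC100) defining full response. Beta-arrestin recruitment detected by chemiluminescent reagent, read after 1 h at ambient temperature.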
D2 PAM – human D2 receptor positive allosteric modulation. DiscoveRx D2 beta-arrestin cells, luminescence, 90 min; 100% = 57 uM dopamine signal. 0.23% of 360,000 active. AID 624464. P14416. potentiation, % (no concentration beside the values); active = potentiation of 50% or more; inconclusive = 30% to 50%; inactive = 30% or less;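 note: compound concentration not given in the record; tested on top of an EC20 dose of dopamine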
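PathHunter beta-arrestin assay in DiscoveRx D2 cells. Compounds were added with an EC20 of dopamine (50 nM final) for 90 min at 37 deg C. Luminescence was read 1 h after detection reagent, with 57 uM dopamine as the EC100 control.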
TRPML1 blocker – blocks the human TRPML1 channel; 0.02% of 390,000 active; TRPML1-inducible cells, Ca2+ dye fluorescence, FDSS; hits give low values; inhibition of EC80 agonist-evoked calcium signal; activity change, negative = inhibition, % (concentration not given with the values); Q9GZU1; in the data active means activity change below about -50%; inconclusive means about -30% to -50%; inactive means above about -30%;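 note: stimulus is agonist 54-4 at its EC80 concentration; % is set by controls: 0 for no effect and ±100 for the full control effect; compound concentration not given in the record; the text of the record puts the active cut at -80%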
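Tet-induced TRPML1-DL cells loaded with Ca8 no-wash calcium dye were read kinetically on FDSS. Compound addition was followed by EC80 agonist 54-4 (4 uM final); inhibition was read over 110 s.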
* = called active by the depositor; ? = inconclusive; · = not tested or not shown; & = joins results of further samples; [ ] = remark or other dose.

SMILES | TRPML1 ag | Six1-Eya2 inh | PINK1 expr mod | D2 ag | D2 PAM | TRPML1 blocker
CNS(=O)(=O)c1cccc(C(=O)OCC(=O)c2cc3ccccc3o2)c1 | -0.1 | -2.1 | 2.8% | -6.2 | -14.9 | -3.2
N#CC1(NC(=O)CSc2nnc(COc3ccccc3F)n2N)CCCCC1 | 2.2 | 3.8 | -1.9% | 7.7 | 5.8 | 3.7
CC(C)CN(CC(C)C)S(=O)(=O)N1CCC(C(=O)NCc2cccs2)CC1 | 0.1 | -2.0 | -0.8%[38.3 µM] | -1.4 | -6.9 | -16.7
O=C(Nc1nnc(S(=O)(=O)N2CCCCCC2)s1)c1ccc(Br)cc1 | -0.5&-0.3 | 3.7 | 3.4%&2.2% | -5.3 | -4.4 | 2.8&1.7
Cc1onc(-c2c(Cl)cccc2Cl)c1C(=O)c1ccc(F)cc1 | -0.7 | 13.4 | 1.2% | -5.1 | -15.9 | -8.8
CN(C)c1ccc(/C=C2\C(=N)N3N=C(CC(=O)N4CCCC4)SC3=NC2=O)cc1Br | 0.6 | -6.9 | -1.3% | 3.7 | -5.4 | -19.4
O=c1cc(NCCc2ccccc2)c2ccccc2o1 | -0.7 | 8.8 | 1.7% | 0.1 | -24.5 | -2.8
O=S(=O)(c1ccc2nc(Cc3cccc(C(F)(F)F)c3)[nH]c2c1)N1CCOCC1 | 0.4 | 5.2 | 2.1%[38.3 µM] | 1.7 | 5.1 | -0.7
COCCCN1C(=O)C(CC(=O)NCc2cccc3ccccc23)CC(C(=O)N(C(C)C)C(C)C)=C1C (stereo unspecified) | 1.5 | 4.5 | 1.6% | 2.6 | -6.6 | 31.9
O=C(O)c1ccc(CNC(=O)C2CCN(S(=O)(=O)c3ccc4c(c3)OCCO4)CC2)cc1 | 0.4 | 6.2 | -1.4% | -0.6 | -19.9 | -8.0
Cc1ccc([N+](=O)[O-])cc1NC(=O)CN(C(=O)c1ccccc1Cl)C1CCCCC1 | 0.4 | -4.1 | 2.1% | -3.6 | -13.0 | 15.5
CC1CCN(C(=O)COC(=O)Cc2ccc(Br)cc2)CC1 | -1.1 | 6.0 | 1.8% | -4.9 | -9.5 | 8.4
O=[N+]([O-])c1ccc2c(c1)C=C1CCCCC1(N1CCCC1)O2 (stereo unspecified) | 14.2 | -4.5 | ? | -2.2 | -6.0 | 8.6
Cc1cc(C)cc(OCc2nnc(SCC(=O)N3CCN(c4ccccc4)CC3)o2)c1 | 1.4 | 5.9 | 11.0% | 0.5 | 6.4 | 22.3
CC(C)C1C(=O)N(Cc2cn(CC3CCCCC3)nn2)CCS(=O)(=O)N1Cc1ccc(-c2ccccc2)cc1 (stereo unspecified) | 0.6 | -0.7 | 0.9% | -1.6 | -9.5 | -2.9
CCCC(=O)Nc1cccc(-c2nc3ncccc3o2)c1 | 1.0 | · | 1.6% | · | · | 5.6
CCC(=O)Nc1ccc(-c2nnc(SCC(=O)Nc3nccs3)n2C)cc1 | 1.2 | 5.1 | -0.9% | -0.4 | -3.8 | -4.6
O=c1[nH]c(=O)c2cn[nH]c2[nH]1 | -0.3 | -12.3 | 1.2% | -4.1 | -3.6 | -16.0
O=C(Nc1ccccc1N1CCCCC1)c1ccccc1F | 0.0 | 21.9 | 17.2%[38.3 µM] | -5.3 | -2.4 | -1.1
COc1ccc(N=C2C(=Nc3ccc(OC)cc3)N(c3ccc(OC)cc3)C(=S)N2C(=O)c2ccc(OC)cc2)cc1 | -0.2 | -4.9 | 0.9%[38.3 µM] | -0.4 | -1.2 | -9.1
O=[N+]([O-])c1cc(-c2ncccn2)cs1 | -0.3 | -16.8 | -0.9% | -0.6 | 1.9 | 4.0
CC(=O)Nc1ccc(-c2nc(C)c(C(C)=O)n2O)cc1 | -0.1 | -9.1 | · | -5.4 | 0.0 | 4.7
CCCOC(=O)C1=C(C)NC2=C(C(=O)C(C(=O)OC)C(C)C2)C1c1ccc(N(CC)CC)cc1 (stereo unspecified) | 0.8 | -22.4 | 2.2% | -3.1 | -5.1 | 7.7
COc1cccc(NC(=O)CN(C)C(=O)CC2CCCCC2)c1 | 0.1 | 0.8 | 3.8% | 3.5 | -8.2 | -0.1
O=C(NCC(c1ccc2c(c1)OCO2)N1CCN(c2ccccc2F)CC1)c1ccccc1F (stereo unspecified) | 0.5 | · | -0.7% | · | · | 8.5

3 of the compounds above, with two lines to a compound:
The line under a structure holds: TRPML1 ag, Six1-Eya2 inh, PINK1 expr mod, D2 ag, D2 PAM, TRPML1 blocker
> O=C(Nc1ccccc1N1CCCCC1)c1ccccc1F
 : 0.0, 21.9, 17.2%[38.3 µM], -5.3, -2.4, -1.1
> COc1ccc(N=C2C(=Nc3ccc(OC)cc3)N(c3ccc(OC)cc3)C(=S)N2C(=O)c2ccc(OC)cc2)cc1
 : -0.2, -4.9, 0.9%[38.3 µM], -0.4, -1.2, -9.1
> O=[N+]([O-])c1cc(-c2ncccn2)cs1
 : -0.3, -16.8, -0.9%, -0.6, 1.9, 4.0

(listing goes on)
SMILES | TRPML1 ag | Six1-Eya2 inh | PINK1 expr mod | D2 ag | D2 PAM | TRPML1 blocker
Cc1ccc(NC(=O)C(=O)NCC(c2cccnc2)N2CCN(C)CC2)cc1F (stereo unspecified) | 0.2 | · | -0.4% | · | · | -3.3
NC(N)=N/N=C/c1ccccc1OC(F)F | 0.4 | -3.7 | 4.1% | -2.4 | -13.2 | 1.1
Cc1cc(C)c(/C=N/NC(N)=O)c(C)c1/C=N/NC(N)=O | 0.1 | -1.1 | -1.4% | -1.3 | 6.3 | -5.0
O=c1[nH]c(Nc2ccccc2Cl)cc2ccccc12 | -1.2 | 5.0 | 6.4% | 2.4 | 8.1 | 1.0
Cc1sc2ncnc(N(C)Cc3cccs3)c2c1C | 0.0 | 8.1 | 2.0% | -0.4 | -1.2 | -0.7
Cc1ccc(N2C(=O)/C(=C\c3ccco3)SC2=S)cc1 | -0.3 | -16.5 | 6.0% | -1.8 | -5.6 | -1.6
O=C(O)c1cccc(Nc2nc(-c3cc4ccccc4oc3=O)cs2)c1 | -0.2 | -78.2* | 0.6% | -3.3 | -4.5 | -13.7
COCCn1c(SCC(=O)N2CCCc3ccccc32)nnc1-c1ccoc1C | -0.3 | -2.1 | -1.1% | -1.5 | -25.0 | 24.3
Cc1nn(CCc2n[nH]c(=S)n2C2CCCCC2)c(C)c1Br | 0.3 | 0.2 | -2.7%[38.3 µM] | 0.6 | -10.2 | -5.2
CCOC(=O)C1=C(c2ccccc2)N=c2s/c(=C\c3ccc(O)cc3)c(=O)n2C1c1cccs1 (stereo unspecified) | 5.4 | -8.3 | ? | -8.5 | -8.7 | -11.3
CC(=O)c1c(N)n(C)c(=O)n(C)c1=O | 0.1 | 4.2 | · | -0.8 | 8.7 | 4.3
O=C(Nc1ccccc1)c1ccncc1 | -0.8 | -1.8 | -1.7% | 0.4 | -0.8 | -6.3
COc1ccc(CN=C(NS(=O)(=O)c2cccs2)SC)cc1 | -0.9 | 0.8 | 1.7% | 0.3 | -3.4 | -10.1
CCc1ccc(NC(=O)C(=O)NCCN2CCN(S(=O)(=O)c3ccccc3)CC2)cc1 | -0.7 | -3.5 | 0.7% | 0.3 | -5.4 | -3.5
CC(=O)C1=C(C)N(CC2CC2)C(=O)N[C@H]1c1cccs1 | -1.2 | 0.4 | -1.6% | -3.9 | -8.5 | -1.3
N#CC(C(=O)OC1CCCCC1)c1nc2ccccc2nc1N1CCOCC1 (stereo unspecified) | -0.7 | -1.1 | 7.9% | -2.2 | -5.1 | 1.2
Cc1cc(C)nc(NC(N)=NCCc2c[nH]c3ccccc23)n1 | 0.5 | -19.2 | 0.2% | -4.8 | -14.5 | 0.4
CCCCn1c(SCC(=O)Nc2cc(C)on2)nnc1-c1cccs1 | -0.1 | 2.0 | 0.0% | -3.7 | -13.6 | -7.8
COc1ccccc1C(=O)OCc1c(-c2ccccc2)ncc2ccccc12 | 1.7 | -6.8 | -0.6% | -4.0 | · | -4.2
COc1ccc(NC(=O)Nc2cc(NC(=O)Nc3ccc(OC)cc3)c(C)nc2C)cc1 | -0.5 | 6.5 | -0.7% | 2.0 | -16.9 | -1.9
Cc1cc(C(=O)Cn2nnc3ccccc3c2=O)c(C)n1-c1ccccc1F | 2.0 | -22.0 | -0.1% | 1.2 | 0.0 | 16.0
Cc1cc(C(=O)Nc2ccccc2C)n(-c2ccccc2)n1 | -1.3 | 0.1 | 0.8% | -1.5 | -6.7 | -7.0
CCC(=O)N1c2ccccc2CC1C(=O)NCCCN1CCN(c2ccccc2)CC1 (stereo unspecified) | 0.7 | · | -1.1% | · | · | -10.4
Cc1ccc(S(=O)(=O)NC(=O)c2ccccc2)cc1C(C)C | 0.2 | 6.7 | -1.1% | -1.2 | -1.5 | -0.9
CC1(C)C2(C#N)C(=O)NC(=O)C12C#N (stereo unspecified) | -0.2 | 7.5 | -1.5% | 0.2 | -2.6 | 0.9
New compounds follow.
SMILES | TRPML1 ag | Six1-Eya2 inh | PINK1 expr mod | D2 ag | D2 PAM | TRPML1 blocker
O=C(Nc1ccccc1N1CCN(C(=O)c2ccccc2)CC1)c1ccco1 | 1.3 | -5.7 | -1.6% | 3.5 | -0.1 | -1.4
COc1ccc2oc(=O)cc(CN3CCN(c4ccc(F)cc4)CC3)c2c1 | -0.3 | · | -0.5% | · | · | 2.3
O=S(=O)(c1ccccc1)c1nc(-c2ccc(Cl)cc2Cl)oc1N1CCCCC1 | 0.1 | · | 1.3% | · | · | -14.1
O=C(N/N=C/c1cn(-c2ccccc2)nc1-c1ccc(F)cc1)c1ccc(Br)o1 | 0.3 | -15.8 | 3.1% | -0.6 | -19.2 | -3.9
COc1ccc(Nc2nc(N)nc(CSC(=S)N3CCN(C)CC3)n2)cc1 | 1.2 | 0.0 | 0.2% | 3.2 | -4.4 | 20.9
CCCCOc1cccc(C(=O)NC(=S)Nc2ccc(Cl)c(C(=O)O)c2)c1 | 3.4 | -4.7 | 0.2% | -18.0 | -11.2 | 1.3
Cc1nn(C)cc1/C=C/C(=O)c1ccccc1 | 0.0 | -12.0 | ? | -3.2 | 11.6 | -1.9
CCOc1ncccc1C(=O)OCC(=O)Nc1cc(S(=O)(=O)N2CCCCC2)ccc1Cl | 5.8 | -1.3 | 0.9% | 2.0 | -12.4 | 12.9
O=C(NCc1ccco1)c1nnc(Cc2ccc(Cl)cc2)o1 | -1.4 | -0.8 | -0.4% | -6.1 | -2.4 | 1.2
CCOc1ccc(-c2nc(CSCC(=O)NCCCN3CCCC3=O)c(C)o2)cc1 | 0.6 | -0.2 | 0.3% | -3.8 | -11.5 | 10.7
COCc1cc(C)nc(SCC(=O)NC2CCCCC2C)c1C#N (stereo unspecified) | -0.1 | 6.4 | -2.0% | -2.4 | -6.1 | -14.3
Cc1ccc(S(=O)(=O)N2CCN(C(=O)c3cc(=O)[nH]c4ccccc34)CC2)c(C)c1 | 0.5 | 2.7 | -1.7% | -0.7 | -1.0 | -8.2
C#Cc1cccc(NC(=O)c2ccc3c(c2)C(=O)N(Cc2cccnc2)C3=O)c1 | 0.3 | -18.1 | 2.2% | 2.1 | -7.6 | -9.9
COc1cc(OC)cc(-c2c(-c3cccs3)c3cc(-c4ccn[nH]4)ccc3n2C)c1 | 0.5 | -9.9 | 10.6% | 2.2 | ? | -5.1
Cc1nnc(NN2CCOCC2)[nH]c1=O | 0.3 | -1.6 | -2.2% | 1.9 | 7.8 | 9.1

Source: PubChem BioAssay
